FGF22 binding: binders of human FGF22 protein, primary screen, FGF22 synaptogenesis inhibitor project, biophysical, thermal shift, single point; Fibroblast growth factor 22 (Homo sapiens), Q9HCT0; recombinant FGF22 thermal shift, SYPRO orange fluorescence; percent of sucrose octasulfate shift, DMSO zero; calls only at 9.99 µM; 340,000 tested, 1.5% active; AID 651658, 2012;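 active = melting point raised past a set limit in the mean and every replicate; inconclusive = no clear call; three in four hits are not shown here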
Target sequence (Q9HCT0 whole entry, looked up): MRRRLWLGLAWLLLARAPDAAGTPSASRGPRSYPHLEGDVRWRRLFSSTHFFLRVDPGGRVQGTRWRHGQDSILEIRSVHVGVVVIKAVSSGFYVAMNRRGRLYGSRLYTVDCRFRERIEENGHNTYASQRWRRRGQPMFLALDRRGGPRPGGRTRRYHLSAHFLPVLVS
RanGTP-Imp inh: inhibitors of RanGTP-importin-beta interaction, primary screen, biochemical, FRET, CFP-Ran, YFP-importin-beta, homogeneous; cell-free CFP-Ran/YFP-importin-beta FRET ratio; Ran GTPase (GTP-bound) - importin-beta complex; inhibition, % (no concentration beside the values); 300,000 tested, 1.1% active;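 active = most replicates above 15%; inconclusive = exactly half above 15%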;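 also: 0% = DMSO wells and 100% = Ran loaded with GDP instead of GTP; wells of about 40 µL received 100 nL stock; the first replicate is given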
T cruzi inh: inhibitors of intracellular T. cruzi growth, primary screen, luminescence, NIH3T3 host cells. T. cruzi beta-gal in NIH3T3, 90 h. inhibition, % (no concentration beside the values). AID 1885, 2009. 300,000 tested, 1.4% active;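 active = mean inhibition across valid replicates above about 55%, limit read from the data; inconclusive = mean below that limit but half or more replicates reach it; inactive = mean below it, under half of replicates reach it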;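 also: signal also drops with host cell toxicity which is not excluded here; 0% = plate median of DMSO wells and 100% = zero luminescence signal; higher percent means less beta-gal luminescence so fewer parasites; stock transfer was 50 nL into about 50 µL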
Calb FLC: C. albicans growth inhibition with fluconazole, primary screen, CaCi-2 strain, Alamar Blue fluorescence. 300,000 tested, 0.57% active. growth inhibition, % (no concentration beside the values). AID 1979, 2009. C. albicans CaCi-2 (fluconazole-resistant clinical isolate) + fluconazole, 48 h;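 active = most replicates above 75%; inconclusive = exactly half above 75%; inactive = most below 75%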;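 also: all wells also contain fluconazole at 8 µg/ml as a sub-toxic cotreatment; 0% = median of DMSO wells and 100% = median of geldanamycin control wells; wells of about 8 µL received 7.5 nL stock; the first replicate is given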
Beta apoptosis: inhibitors of cytokine-induced beta cell apoptosis, primary screen, luminescence; INS-1E cytokine-induced death, ATP luminescence, 48 h; percent of positive-control rescue, neutral wells zero; protection from apoptosis, % (no concentration beside the values); 300,000 tested, 0.8% active;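 active = all replicates at 75% or more, or half of them and the mean; inconclusive = half reach 75% but not the mean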;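 also: 0% = cytokine-treated negative control wells and 100% = positive control rescue; higher means more ATP so stronger rescue from cytokine killing; wells of about 40 µL received 100 nL stock; the first replicate is given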
MLL AF4-AF9 inh: inhibitors of AF4 peptide binding to AF9, primary screen, biochemical, AlphaScreen, biotin-AF4 peptide, FLAG-AF9, single point; Protein AF-9 (Homo sapiens), P42568; inhibition, % at 10 µM; 350,000 tested, 0.47% active; AID 651704, 2012;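 active = every replicate reaching a set inhibition limit, whatever the replicate mean, cut at about 25% in these data; inconclusive = mean inhibition reaches that limit but some replicates miss it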;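 also: 0% = plate neutral control median and 100% = total signal loss; the record names both 10 and 1 µM as test concentration; the first replicate is given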
Target sequence (P42568 whole entry, looked up): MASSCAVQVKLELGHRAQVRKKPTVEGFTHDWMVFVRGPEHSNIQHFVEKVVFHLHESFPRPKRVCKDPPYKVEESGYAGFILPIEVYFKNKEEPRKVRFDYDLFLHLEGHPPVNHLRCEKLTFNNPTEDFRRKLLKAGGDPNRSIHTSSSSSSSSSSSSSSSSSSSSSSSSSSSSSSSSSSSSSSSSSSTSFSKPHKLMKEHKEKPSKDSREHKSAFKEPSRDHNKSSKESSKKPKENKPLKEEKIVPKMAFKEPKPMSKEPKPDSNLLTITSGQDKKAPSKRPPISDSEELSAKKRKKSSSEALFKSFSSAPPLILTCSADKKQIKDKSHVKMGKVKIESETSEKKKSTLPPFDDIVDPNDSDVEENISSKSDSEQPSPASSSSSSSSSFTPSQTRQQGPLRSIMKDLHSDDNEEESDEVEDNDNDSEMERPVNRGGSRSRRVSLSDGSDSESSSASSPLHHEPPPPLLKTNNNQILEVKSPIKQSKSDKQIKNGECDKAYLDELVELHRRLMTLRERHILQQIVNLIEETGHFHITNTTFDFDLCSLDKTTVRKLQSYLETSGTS
ALR inh: inhibitors of human ALR sulfhydryl oxidase, primary screen, biochemical, H2O2 detection, HRP-luminol luminescence, single point | FAD-linked sulfhydryl oxidase ALR (Homo sapiens), P55789 | purified ALR, DTT oxidation | inhibition, % (no concentration beside the values) | 290,000 tested, 3.8% active | AID 485317, 2010;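 active = mean and each replicate at 75% or more; inconclusive = only one of the two met; inactive = neither met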;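 also: stock transfer was 7.5 nL into about 7.5 µL; 0% = neutral wells and 100% = wells with inactivated enzyme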
Target sequence (P55789 whole entry, looked up): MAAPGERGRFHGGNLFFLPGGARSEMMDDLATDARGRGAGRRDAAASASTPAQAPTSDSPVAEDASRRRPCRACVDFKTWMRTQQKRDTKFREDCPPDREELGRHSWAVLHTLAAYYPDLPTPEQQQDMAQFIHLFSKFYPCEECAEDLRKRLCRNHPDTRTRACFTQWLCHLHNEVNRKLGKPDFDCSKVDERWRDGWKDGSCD
rRNA inh HTS: reduced GFP signal of wild-type E. coli, primary screen, bacterial rRNA inhibitor project, GFP/RFP fluorescence, OD600, single point; E. coli WT GFP vs humanized-ribosome RFP mutants, 24 h; hits give low values; DMSO median 0, no signal -100; GFP signal change (wild-type ribosome), % (test concentration not listed); 350,000 tested, 1.6% active;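 active = significant combined selectivity score with lowered wild-type GFP, culture density cut under 30%, mutant RFP and density less affected; inactive = any of these conditions unmet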; also: one replicate is shown; some compounds called inactive have numbers as strong as hits
rRNA inh HTS OD600: second read-out of rRNA inh HTS, no call of its own (marks repeat the call); OD600 change, %; measured here: OD600 growth;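 optical density of the mix in the first replicate; 0 = DMSO median and -100 = no signal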
rRNA inh HTS RFP: further read-out of rRNA inh HTS, marked with its call; RFP signal change, %; measured here: RFP humanized mutant strains;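 first replicate; 0 = DMSO median and -100 = no signal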
Numbers without * were called inactive; i = inactive; ? = inconclusive; · = no result given; & = joins results of further samples.

Molecule,FGF22 binding,RanGTP-Imp inh,T cruzi inh,Calb FLC,Beta apoptosis,MLL AF4-AF9 inh,ALR inh,rRNA inh HTS,rRNA inh HTS OD600,rRNA inh HTS RFP
COc1ccc(CCN2C(=O)C(Oc3ccccc3C)C2c2ccc3c(c2)OCO3)cc1 (centres undefined),i,-0.6,44,1,-2,10,-3,20,16,-0.8
Cc1cc(C)c(NC(=O)CN(C)C(=O)c2ccc(OCc3ccccc3)cc2)c(C)c1,i,·,·,·,3,3.0,2,8,20,-0.6
CCCOc1ccc2cc(-c3ccccn3)c(=O)oc2c1,i,5.7,-17,30,12,-2.8,-3,-2,2,-0.9
COc1ccc(C)cc1NC(=O)c1cccc(C(=O)Nc2cc(C)ccc2OC)c1,i,-2.6,6,-1,3,-2.9,-8,0,3,-2.7
CCOc1ccc(C(=O)NC2CCN(C(=O)N3CCCC3)CC2)cc1,·,?,-4,-16,4,·,1,·,·,·
Cc1ccc(NC(=O)NCC2CC2(Cl)Cl)cc1 (centres undefined),i,0.5,4,8,-3,-1.8,-2,0,1,-1.2
COc1ccc(SCCc2ccncc2)cc1,i,1.6,70*,29,8,0.4,93*,23,18,2.4
Fc1cccc(NC(=S)N2CCN(c3ccccn3)CC2)c1,i,3.6,-6,7,·,3.4,-6,3,-3,1.4
COc1ccccc1NS(=O)(=O)c1cc(NC(=O)CN2C(=O)NC3(CCCC3)C2=O)ccc1C,i,-3.2,0,9,-2,-1.1,-6,-4,-6,-2.0
CC1CCCN(c2cc3c(cc2[N+](=O)[O-])C(=O)N(c2ccccc2)C3=O)C1 (centres undefined),·,7.3,-24,0,1,·,-3,·,·,·
Cc1ccc(C(=O)NCCn2cc(SCC(=O)Nc3nnc(C)s3)c3ccccc32)cc1,i,-1.0,-8,5,-7,6.4,-1,5,-4,10
CC(C)OC(=O)C(CC(=O)O)N1CCOCC1 (centres undefined),·,-1.6,-1,-20,3,·,-5,29,21,-1.7
COc1cc(OC)cc(-c2nnc(SCC(=O)N3c4ccccc4Sc4ccccc43)o2)c1,·,4.4,3,-3,2,·,-6,·,·,·
O=C(O)c1ccc(NS(=O)(=O)c2ccc(Cl)c(C(=O)Nc3ccccc3[N+](=O)[O-])c2)cc1,i,-1.7,-16,5,2,-8.3,-1,5,6,-1.6
O=C(c1ccncc1)N1CCN(S(=O)(=O)c2cccc(F)c2)CC1,i,1.7,0,0,1,0.5,1,8,10,-1.0
COc1ccccc1/C=C/C=N/NC(=O)Cc1cccs1,·,2.6,-8,-26,0,·,1,·,·,·
COc1ccccc1CNC(=O)CN(C)S(=O)(=O)c1ccc2c(c1)c(=O)n(C)c(=O)n2C,i,-0.4,-9,?,0,-8.3,-4,4,9,-4.0
COc1ccccc1CN(C)CC(=O)Nc1cccc2ccccc12,i,1.3,11,-8,-2,0.4,-6,-14,-32,0.7
CCn1c(=O)c2sccc2n(CC(=O)NC2CCCCC2)c1=O,i,-3.9,-13,-4,-1,-1.6,-1,4,8,-3.2
CCn1cc(CN2CCC(n3nccc3NC(=O)CCCc3ccccc3)CC2)c(C)n1,i,-0.1,0,-4,-3,1.4,-4,6,7,-3.1
CCOC(=O)N1CCN(S(=O)(=O)c2ccc3[nH]c(=O)oc3c2)CC1,i,-0.4,-2,-17,-9,-13,-12,4,4,1.1
CCOc1ccc(C2C3=C(CC(C)(C)CC3=O)N(CC(=O)O)C3=C2C(=O)CC(C)(C)C3)cc1OCC,i,2.9,-8,-3,1,-0.5,-9,12,6,-1.0
Cc1ccc(Nc2nc(N)nc(CSc3ncccn3)n2)cc1,·,1.5,-5,20,-6,·,48,·,·,·
CCCC1=C(C(=O)OCC)C(c2c(C)nn(-c3ccccc3)c2Cl)C(C#N)=C(N)O1 (centres undefined),·,-1.4,6,0,-19,·,-2,·,·,·
COc1cccc(NC(=O)C2COc3ccccc3O2)c1 (centres undefined),i,2.6,-20,-20,-3,-3.3,-3,-1,-5,-2.9
Cc1cc(NC(=O)c2cncc(Br)c2)no1,·,4.2,-3,4,1,·,0,·,·,·
Cc1ccccc1C(=O)Nc1cc(NC(=O)c2ccccc2C)cc(C(=O)O)c1,i,0.1,-3,1,-1,-4.9,-7,-12,-2,-7.8
CCCc1c(NC(=O)Nc2ccc(F)cc2)cnn1-c1ccccc1,i,-4.6,1,3,-5,-3.3,-9,5,14,0.9
CC(C)OC(=O)CC1=NC(=O)CS1,·,4.7,-3,3,6,·,11,·,·,·
O=C(CC1NCCc2ccccc21)Nc1ccc(Oc2ccccc2)cc1 (centres undefined),i,-0.7,42,11,·,6.7,1,-39,-67,14
Cc1ccc(NC(=O)CC2NCCN(Cc3ccccc3)C2=O)cc1 (centres undefined),i,-3.1,11,8,-1,-6.7,2,-2,2,-0.3
CCN(CC)S(=O)(=O)c1ccc(-c2csc(C)n2)s1,i,7.4,9,0,7,·,-3,-14,-14,3.9
CCOC(=O)c1ccc(N2CCOCC2)c(NC(=O)c2c(-c3ccccc3)noc2C)c1,i,-4.2,11,-2,·,·,-6,-7,-22,-3.8
CC(C)NC(=O)N(C)C[C@H]1Oc2ccc(NC(=O)Cn3cnnn3)cc2C(=O)N([C@H](C)CO)C[C@@H]1C,i,·,·,·,-1,-5.8,-3,4&22,2&15,0.8&5.1
O=C(O)C1CC=CCC1C(=O)NCCc1cccc(Cl)c1 (centres undefined),·,0.7,11,1,-9,·,-9,·,·,·
O=C(O)c1ccc(Nc2nc(-c3ccccc3)cs2)cc1,i,-2.1,-11,-2,0,-0.5,?,-7,-25,-1.2
CC(=O)Nc1ccc(SC[C@H](CC(C)C)N2CCN(CCc3ccccc3)CCC2=O)cc1,i,7.8,12,-7,10,-0.9,99*,0,-4,-2.2
Cc1ccc(NC(=O)c2ncn[nH]2)cc1,i,1.6,0,18,-1,0.0,-3,17,16,-0.3
CCCC(=O)NCCCCNC(=O)CCC,·,?,-8,-4,-3,·,-1,·,·,·
O=C(Cn1ncc2c([nH]c3ccccc32)c1=O)Nc1ccc(CN2CCCCC2)cc1,·,3.5,17,-4,·,·,-14,·,·,·

Compounds listed so far with a nitro group on carbon, in the order listed:
Molecule,FGF22 binding,RanGTP-Imp inh,T cruzi inh,Calb FLC,Beta apoptosis,MLL AF4-AF9 inh,ALR inh,rRNA inh HTS,rRNA inh HTS OD600,rRNA inh HTS RFP
CC1CCCN(c2cc3c(cc2[N+](=O)[O-])C(=O)N(c2ccccc2)C3=O)C1 (centres undefined),·,7.3,-24,0,1,·,-3,·,·,·
O=C(O)c1ccc(NS(=O)(=O)c2ccc(Cl)c(C(=O)Nc3ccccc3[N+](=O)[O-])c2)cc1,i,-1.7,-16,5,2,-8.3,-1,5,6,-1.6

Later entries:
Molecule,FGF22 binding,RanGTP-Imp inh,T cruzi inh,Calb FLC,Beta apoptosis,MLL AF4-AF9 inh,ALR inh,rRNA inh HTS,rRNA inh HTS OD600,rRNA inh HTS RFP
CN1CCN(C(c2cccc(Cl)c2)c2ccccc2Cl)CC1 (centres undefined),i,-0.2,40,-8,0,?,-5,-20,-23,-1.1
CCOCc1nc(N)[nH]c(=O)c1Cc1ccc(OC(C)C)cc1,·,-1.4,-1,3,-7,·,0,·,·,·
Cc1ccc(NC(=O)CSc2nnc(C3COc4ccccc4O3)o2)c(Cl)c1 (centres undefined),i,6.9,-13,-24,0,-0.4,-3,-3,-7,0.6
COc1ccc(N2CCN(C(=O)c3ccc(CS(=O)c4cccc(C)c4)o3)CC2)cc1 (centres undefined),i,-2.6,-4,21,-6,4.6,99*,-10,-20,-5.3
Cn1nc(-c2ccc(C(=O)N3CCN(CCO)CC3)cc2)c2ccccc2c1=O,·,-2.3,-7,30,-7,·,-31,·,·,·
CCOc1cc(S(=O)(=O)NCc2ccccc2)ccc1Br,i,-0.4,16,20,-5,0.1,0,-28,-31,-4.7
Cc1ccc(Cn2nc(C)c(NC(=O)CCCn3nc([N+](=O)[O-])c(Cl)c3C)c2C)cc1,·,-5.7,39,26,-2,·,-2,·,·,·
O=C(COc1cc(F)ccc1[N+](=O)[O-])N1N=C(c2cccs2)CC1c1ccco1 (centres undefined),i,·,·,·,16,11,-1,-3,-6,1.0
COCCNC(=O)CN1C(=O)NC2(CCOc3ccccc32)C1=O (centres undefined),i,1.8,-4,-6,-1,0.9,·,9,12,-0.3
CC(=O)c1cccc(NC(=O)CC(C)n2ccnc2)c1 (centres undefined),i,-1.9,0,-6,-3,-1.3,-18,17,9,1.2
COCCn1cnnc1SCC(=O)Nc1sccc1C(N)=O,i,2.0,-36,-30,-2,0.0,26,18,1,3.7
Cc1cc(C(=O)CSc2nnnn2-c2ccc(Cl)cc2)c(C)n1CC1CCCO1 (centres undefined),·,0.7,?,29,2,·,-5,·,·,·
CN(Cc1nc(-c2ccc3c(c2)OCO3)no1)CC1(N2CCOCC2)CCCCC1,i,3.3,22,-15,-1,-0.1,4,-10,-7,7.8
O=C(COC(=O)c1c2ccccc2cc2ccccc12)NCC(F)(F)F,·,-1.3,19,1,3,·,8,·,·,·
COc1ccccc1-n1c(C)cc(/C=C2\C(=N)N3N=C(CC(=O)N4CCOCC4)SC3=NC2=O)c1C,i,-0.6,-4,2,-2,2.9,-1,6,-4,5.4
CC(C)NC(=O)NC(=O)CN1C(=O)NC2(CCc3ccccc3C2)C1=O (centres undefined),i,-1.4,2,-1,-4,-0.8,-23,6,6,2.5
Cc1ccc(C(=O)NNC(=O)c2cccs2)cc1,i,0.3,4,-2,-6,-2.0,-1,11,11,8.8
CC(C)CNC(=O)COC(=O)C1c2ccccc2Oc2ccccc21,i,0.3,-29,-1,-5,0.5,15,4,1,2.9
COC(=O)c1ccc(Cn2cnc3c(sc4nc(N5CCOCC5)c5c(c43)CCCC5)c2=O)o1,·,2.7,20,0,-2,·,1,·,·,·
O=C(COc1ccc(-n2ccnc2)cc1)Nc1cccc(F)c1,i,-1.8,-16,-4,-8,3.5,-8,0,-2,-5.0
O=[N+]([O-])c1ccc(SCc2ccncc2)nc1,i,-8.1,-6,-3,-3,2.0,-16,12,-2,2.7
Cc1ccc(C(=O)N/N=c2\oc3ccccc3cc2C(N)=O)cc1,i,-5.1,-9,10,2,-1.8,·,-1,4,-2.8
COCC(=O)Nc1nc2n(n1)C(c1ccccc1)CC(c1ccc(OC)cc1)N2 (centres undefined),·,0.4,9,14,-2,·,4,·,·,·

The list is partial; count on the stated rates, not on these rows.
